VDR inhibitor: blocks the human vitamin D receptor; Potency, µM, for inactives: max response, negative = inhibition, most hits filed as inhibitors; P11473; actives 0.93% (n = 400,000); VDR-SRC2-3 peptide fluorescence polarization, 2 h; active = well fitted inhibition curve with a large enough effect; inconclusive = small, poorly fitted or top-dose-only effect, or another doubt; inactive = no such curve, though single readings can be large or run the other way; note: series mostly up to about 120 µM
Target sequence (P11473 whole entry, looked up): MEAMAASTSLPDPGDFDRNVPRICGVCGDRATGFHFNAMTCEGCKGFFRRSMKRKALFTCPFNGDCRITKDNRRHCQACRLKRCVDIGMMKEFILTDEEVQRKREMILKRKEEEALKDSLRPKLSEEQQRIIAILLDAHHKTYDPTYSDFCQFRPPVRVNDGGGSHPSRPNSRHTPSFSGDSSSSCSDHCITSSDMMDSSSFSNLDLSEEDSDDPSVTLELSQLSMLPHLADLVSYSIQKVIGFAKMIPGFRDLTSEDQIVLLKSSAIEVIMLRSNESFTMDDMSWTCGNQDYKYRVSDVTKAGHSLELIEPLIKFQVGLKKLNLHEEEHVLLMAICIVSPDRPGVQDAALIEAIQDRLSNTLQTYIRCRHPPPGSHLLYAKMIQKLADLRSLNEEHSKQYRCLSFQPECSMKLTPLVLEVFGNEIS
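Reagent solutions, kept cold and dark, are dispensed first; compounds are then pinned in at 23 nl, plates briefly spun, and incubated 2 h at ambient temperature. Inhibition of VDR–SRC2-3 peptide binding is read by fluorescence polarization.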
Numbers without * were called inactive; ? = inconclusive. % is set by controls: 0 for no effect and ±100 for the full control effect; potency is the fitted concentration of half-maximal effect. An excerpt; the hit share may differ from the screen's.

| Molecule | VDR inhibitor |
| --- | --- |
| CCn1c(C)c(CCC(=O)O)c(=O)n2nc(-c3ccccc3OC)cc12 | -10.3% |
| O=C(NNC(=O)c1sccc1-n1cccc1)c1cccc(Cl)c1 | -14.1% |
| COc1ccccc1N(C(=O)c1ccco1)C(C(=O)NC1CCCC1)c1cccs1 (centres undefined) | -0.9% |
| Cc1c(O)ccc(C(=O)CN2CCN(c3ccc(F)cc3)CC2)c1O | -22.5% |
| CC(C)S(=O)(=O)c1oc(-c2cccs2)nc1S(=O)(=O)c1ccc(F)cc1 | ? |
| O=Cc1cc(CCC(=O)O)ccc1O | -11.5% |
| Cc1nc2cc(C(=O)O)ccc2n1-c1ccc(F)cc1F | 2.2% |
| Cc1ccc(SCC(=O)NC2CCS(=O)(=O)C2)cc1C (centres undefined) | -11.3% |
| Cc1ccc(NC(=O)CN2CCCN(Cc3ccccc3Cl)S2(=O)=O)c(C)c1 | -2.7% |
| CC(/C=C/c1ccco1)=N/NC(=O)Cc1cccs1 | -29.8% |
| CC(C)C[C@H]1CN=C(Nc2ccccc2)N1CCCCc1ccccc1 | -19.2% |
| CCC(CO)NC(=O)c1ccc(-c2nn(C)c(=O)c3ccccc23)cc1 (centres undefined) | -8.8% |
| CCc1ccc(NC(=O)c2sccc2-n2cccc2)cc1 | -0.6% |
| O=C(CNS(=O)(=O)c1ccc(F)cc1)Nc1ccccc1 | 9.1% |
| CCCOc1ccc(C(=O)NCC(c2ccc(OC)cc2)N2CCCCC2)cc1 (centres undefined) | 1.5% |
| CCOc1ccccc1N=Cc1c(O)n(C)c(=O)n(C)c1=O | 3.4% |
| CCOc1cccc(CC(=O)N2CCc3c([nH]c4ccc(OC)cc34)C2c2ccc(F)cc2)c1OCC (centres undefined) | 2.0% |
| COc1cccc(NC(=O)c2cccc3c(=O)c4c([nH]c23)CCCC4)c1 | 1.1% |
| O=S(=O)(c1ccc(Cl)cc1)N1CCN(c2ncnc3sccc23)CC1 | -4.5% |
| Cc1nn(CC(=O)Nc2cccc(Cl)c2)c(=O)c2cc(-c3ccccc3)nn12 | 20.5% |
| CN(Cc1ccccc1)C(=O)CC(=O)N(C)Cc1ccccc1 | -8.7% |
| CCc1ccccc1NC(=O)NNS(=O)(=O)c1cc(C)ccc1C | -8.2% |
| COc1ccc(CNc2nc(-c3ccc4c(c3)OCO4)nc3ccccc23)c(OC)c1 | 1.7% |
| COc1ccc(CSc2nncn2C)cc1F | -7.6% |
| N/C(=N\OC(=O)Cc1ccc(Cl)cc1)c1ccncc1 | -9.8% |
| CCC1=[N+]([O-])C(C)(/C(C)=N\O)N(O)C1(C)C (centres undefined) | -1.5% |
| Cc1ccc2c(c1)C(=O)CCN2 | -24.7% |
| CCc1cc(-c2n[nH]c(C)c2-c2nc3ccccc3s2)c(O)cc1OCC(=O)NN | 9.5% |
| CCc1ccccc1NNC(=O)c1cc(C)on1 | -13.3% |
| Cc1cc(Cl)cc(Br)c1OCCCNCC(C)O (centres undefined) | -2.6% |
| COc1ccc(SCC(Cc2ccccc2)N2CCN(C)CCC2=O)cc1 (centres undefined) | -8.9% |
| CC(=O)Nc1ccc(S(C)(=O)=O)c(C)c1 | 10.9% |
| O=C(COc1ccc(F)cc1)Nc1ccc2nc(SCc3ccccc3)sc2c1 | -7.1% |
| COc1cccc(Nc2ncc3nc(-c4cccs4)c(=O)n(-c4ccccc4)c3n2)c1 | 2.2% |
| COc1cc2ncnc(NCc3ccccc3Cl)c2cc1OC | -0.6% |
| O=C(COc1ncnc2sccc12)N1CCN(C(=O)c2ccco2)CC1 | -14.1% |
| CC(C)c1ccc(NC(=O)COC(=O)/C=C/c2cccc(Br)c2)cc1 | -6.8% |
| CCc1ccccc1NC(=O)c1cc(S(=O)(=O)N2CCC(C)CC2)cn1C | 0.7% |
| Cc1ccc(C)c(NC(=O)c2ccc(S(=O)(=O)N(C)CC3CCCO3)cc2)c1 (centres undefined) | -25.1% |
| Cc1ccc(C(NC(=O)N2CCCC2)C(Cl)Cl)cc1F (centres undefined) | ? |
| COC(=O)c1cn[nH]c1NC(=S)Nc1ccccc1C | -9.9% |
| CN1OC[C@@H]2CN(Cc3cc(Cl)cc(Cl)c3)[C@H](c3cccc(-c4ccccc4)c3)C[C@@H]21 | -6.0% |
| O=c1c(-c2ccccc2)nc2cncnc2n1Cc1ccccc1 | -1.1% |
| COc1ccc(C(=O)NC(=S)NC2CCCCC2)cc1 | ? |
| Cc1cc2c(NCC(C)O)ncnc2s1 (centres undefined) | 6.1% |
| Cc1ccc2nc(SCC(=O)Nc3cc(C)on3)[nH]c2c1 | 9.6% |
| Cc1cc(C)nc(N2CCCC(C(=O)Nc3nnc(C(C)(C)C)s3)C2)n1 (centres undefined) | 7.2% |
| CN(CCOc1ccc(Cl)cc1)c1ccc(S(=O)(=O)N2CCCCC2)cn1 | 12.5% |
| O=c1oc(-c2ccc(Br)o2)nc2ccccc12 | 1.0% |
| Cc1ccc(C)c(CN2C(=O)c3ccccc3Sc3ccc(C(=O)NCc4cccs4)cc32)c1 | -2.9% |

Further results follow:
| Molecule | VDR inhibitor |
| --- | --- |
| O=C(N/N=C\c1cc(Br)cs1)c1ccncc1 | -6.0% |
| CCCCn1c(N)c(N(CC(C)C)C(=O)CN(C)S(=O)(=O)c2ccc(NC(C)=O)cc2)c(=O)[nH]c1=O | -8.7% |
| Cn1cnc2c(N/N=C/c3cccs3)ncnc21 | -3.8% |
| COc1ncnc2c1N[C@@](C)(O)c1c(F)c(F)c(F)c(F)c1S2 | -2.1% |
| CSc1ccccc1NC(=O)c1cccs1 | -2.8% |
| O=[N+]([O-])c1ccc2nc(CCCO)[nH]c2c1 | 3.6% |
| O=C(c1ccc[nH]c1=S)N1CCN(S(=O)(=O)c2ccc(Br)cc2Cl)CC1 | ? |
| Cn1cc(S(=O)(=O)N2CCCC2)cc1C(=O)O | 3.3% |
| Cc1cc(C)c2nc(N3CCN(C(=O)c4cccs4)CC3)sc2c1 | -6.9% |
| Cc1cccc(Nc2ccc(NCc3ccccc3)nn2)c1 | 2.7% |
| COc1ccc(-c2ccc(/C=N/N3C(=O)C4C5C=CC(C6CC56)C4C3=O)o2)c([N+](=O)[O-])c1 (centres undefined) | ? |
| O=C(Cn1cc(S(=O)(=O)N2CCN(c3ccccc3F)CC2)c2ccccc2c1=O)NCCCN1CCCCCC1 | 13.7% |
| CCCCn1c(N)c(N(CCC(C)C)C(=O)C2CC(=O)N(c3ccc4c(c3)OCCO4)C2)c(=O)[nH]c1=O (centres undefined) | 18.8% |
| COC(=O)C(CC(C)C)NC(=O)c1ccc([N+](=O)[O-])c(C)c1 (centres undefined) | -12.1% |
| CCOC(=O)c1ccc(NC(=O)CN2CCN(C(=O)c3ccco3)CC2)cc1 | -4.4% |
| COc1ccc(OC)c(S(=O)(=O)N2CCCC(C(=O)N3CCOCC3)C2)c1 (centres undefined) | -2.7% |
| Cc1ccc(-c2cc(C(=O)Nc3ccncc3)c3ccccc3n2)cc1 | -13.2% |
| Cc1cc(C)cc(NC(=O)Cn2c(=O)oc3cc(S(=O)(=O)N4CC(C)CC(C)C4)ccc32)c1 (centres undefined) | 5.4% |
| Cc1c(C(=O)O)oc2c3c(ccc12)OCCO3 | 12.6% |
| CN1CCN(C(=O)CN(C)S(=O)(=O)c2cc(Cl)ccc2Cl)CC1 | 1.5% |
| CN1CCCC(CC2c3ccccc3Sc3ccccc32)C1 (centres undefined) | -4.6% |
| COc1ccc(OC)c(N2C(=O)CC(NNC(=O)c3ccc4c(c3)OCO4)C2=O)c1 (centres undefined) | 8.6% |
| O=C(NCc1ccccc1)N1CCc2c(sc3c2CCCC3)C1c1ccccc1 (centres undefined) | 1.1% |
| C[C@@H](NC(=O)c1nc[nH]c1C(=O)OCc1ccccc1)c1ccccc1 | -7.5% |
| CCOc1ccc2nc(NS(=O)(=O)Cc3ccccc3)sc2c1 | 9.7% |

5 entries out of the list above, sorted by the number in VDR inhibitor, falling:
| Molecule | VDR inhibitor |
| --- | --- |
| Cc1cc(C)cc(NC(=O)Cn2c(=O)oc3cc(S(=O)(=O)N4CC(C)CC(C)C4)ccc32)c1 (centres undefined) | 5.4% |
| Cc1cccc(Nc2ccc(NCc3ccccc3)nn2)c1 | 2.7% |
| COc1cccc(NC(=O)c2cccc3c(=O)c4c([nH]c23)CCCC4)c1 | 1.1% |
| CCOC(=O)c1ccc(NC(=O)CN2CCN(C(=O)c3ccco3)CC2)cc1 | -4.4% |
| CC(C)C[C@H]1CN=C(Nc2ccccc2)N1CCCCc1ccccc1 | -19.2% |

Continuation:
| Molecule | VDR inhibitor |
| --- | --- |
| COc1ccc(-n2cc(-c3ccccc3)nc2SCC(=O)Nc2ccccc2C)cc1 | 3.8% |
| O=C(COC(=O)c1ccc(Cl)cc1O)NCCN1C(=O)CSC1=O | -15.3% |
| O=C(Cc1ccc([N+](=O)[O-])cc1)OCc1ccc([N+](=O)[O-])cc1 | -7.5% |
| CC(C)c1ccc(NNC(=O)C2CCC2)cc1 | -11.0% |
| CCOC(=O)C(CC)/C(C)=N/NC(=O)c1ccccc1[N+](=O)[O-] (centres undefined) | -8.3% |
| CCOc1ccc(CCNC(=O)c2cccs2)cc1OCC | -16.7% |
| O=C(c1ccco1)N(Cc1ccco1)Cc1cc2ccccc2[nH]c1=O | 4.6% |
| COc1ccc(CCC(=O)NCc2ccc3c(c2)CCN3C(=O)c2cccc(C)c2)cc1 | 18.5% |
| CCN(CC(=O)Nc1ccc(NC(C)=O)cc1)C(=O)c1ccccc1CCc1ccccc1 | 18.0% |
| O=C(CC1Oc2ccc(Cl)cc2NC1=O)NCc1ccccc1 (centres undefined) | -20.3% |
| Cc1oc(-c2ccc(Cl)cc2)nc1CN1CCC(C(=O)N2CCc3ccccc3C2)CC1 | -4.8% |
| COc1ccccc1NC(=O)Nc1ccnn1Cc1cccs1 | 1.9% |
| Cc1ccc(-n2c(-c3ccccc3)c[n+]3c2CCC3)cc1 | -7.0% |
| Cc1ccc(C2CC(c3ccccc3Cl)n3nc(N)nc3N2)cc1 (centres undefined) | -18.8% |
| CCc1nnc2c3ccccc3nc(N3CCN(c4cc(Cl)ccc4C)CC3)n12 | 3.4% |
| CCN1CCN(C(=O)c2ccc(Cn3c(=O)[nH]c4cc(OC)c(OC)cc4c3=O)cc2)CC1 | 9.1% |
| Cc1cc(C)c(C(=O)COC(=O)c2cc([N+](=O)[O-])ccc2NCCO)cc1C | 7.6% |
| CCn1cc(C(=O)N2CCN(Cc3ccc4c(c3)OCO4)CC2)c2cc(OC)c(OC)cc2c1=O | -20.7% |
| CC(=O)c1ccc(NC(=O)c2sc(-n3nc(C)c(Cc4ccccc4)c3C)nc2C)cc1 | 16.0% |
| CC1(C)OC2CC3C4CC=C5CC(O)CCC5(C)C4CCC3(C)C2(C(=O)CO)O1 (centres undefined) | 2.5% |
| Cc1cc(C(=O)N/N=C/c2c(C)nn(-c3ccccc3)c2Cl)n[nH]1 | 7.9% |
| CC(=O)Nc1ccc(NC(=O)CSc2nccn2Cc2ccccc2)cc1 | -0.3% |
| Cc1cccn2c(=O)c3cc(C(N)=S)c(=N)n(CCCOC(C)C)c3nc12 | 25.1µM* |
| CC(C)[C@@H](C(=O)N1CCN(C(=O)OC(C)(C)C)CC1)n1cc(CCO)nn1 | -11.3% |
| CCc1ccc(NC(=O)C(=O)c2ccccc2NC(C)=O)cc1 | 18.4% |
| O=C(NNc1nc2c(F)cc(F)cc2s1)C1=COCCO1 | 5.2% |
| Cc1nc2ccccc2n1CCc1nc2c3ccccc3nc(SCC(=O)Nc3cccc(C(F)(F)F)c3)n2n1 | 17.9% |
| COc1ccccc1C(=O)NC1CCN(C(=S)NCCc2ccccc2)CC1 | 16.0% |
| COc1ccc(-c2oc3ccc(N4CCOCC4)cc3c2C#CCO)cc1 | -7.1% |
| COCCN(C(=O)Nc1ccccc1)c1ccccc1C | 4.9% |
| O=C1NC(=O)C(=Cc2ccccc2[N+](=O)[O-])S1 | ? |
| O=C(NCCCNCc1ccccc1)c1ccncc1 | 8.5% |
| O=C(CCC1N=C2c3ccccc3N=C(SCc3cccc(F)c3)N2C1=O)NCCc1ccccc1 (centres undefined) | 3.5% |
| CCc1nc(Nc2ccncc2)c2oc3ccccc3c2n1 | -5.4% |
| Cc1cccc(N(C)c2cc(C)nc3nc(C)nn23)c1 | -14.6% |
| Cn1cccc1Cc1nnc(SCC(=O)N2CCCCCC2)n1-c1ccc(F)cc1 | 2.7% |
| O=S(=O)(NC1CCCCC1Nc1ccccc1)c1ccccc1 (centres undefined) | 10.1% |
| O=C(C=Cc1ccccn1)c1ccccc1 | 20µM* |
| Cc1cc(C)cc(NC(=O)CSc2nnc(CN3CCOCC3)n2C)c1 | 6.3% |
| COc1ccccc1NC(=S)NCc1ccc(S(N)(=O)=O)cc1 | -15.6% |
| N#Cc1c(C(F)(F)F)cc(-c2cccs2)nc1SC(C(=O)O)c1ccccc1 (centres undefined) | -10.8% |
| COC(=O)CN1C(=O)CSc2ccc(S(=O)(=O)Nc3cccc(Cl)c3C)cc21 | 9.3% |
| CC(C)CN1CCN(Cc2cccc3nccnc23)CC1CCO (centres undefined) | -12.0% |
| O=C(CN1CCSC1=O)N1CCN(S(=O)(=O)c2ccc(F)cc2)CC1 | -8.6% |
| COc1ccc(OC)c(NC(=O)c2csnn2)c1 | -1.4% |
| CC[C@]12c3[nH]c4cc(-c5ccco5)ccc4c3CCN1C(=O)[C@@H](CC(=O)NCc1ccco1)C[C@@H]2C(=O)N1CCN(C(=O)c2ccco2)CC1 | -19.6% |
| O=C(NCCCN1CCOCC1)c1ccc2c(c1)N(Cc1c(F)cccc1Cl)C(=O)c1ccccc1S2 | -13.2% |
| CCn1c(=O)c(-[n+]2ccccc2)c(O)c2ccccc21 | 4.9% |
| CCC(=O)NC(Cc1ccccc1)c1ccc2c(c1)OCCCO2 (centres undefined) | 16.8% |
| O=C(Cn1c(=O)n2nc(-c3ccccc3)nc2c2ccccc21)Nc1ccccc1C(F)(F)F | -0.7% |
| O=c1[nH]c2cc3c(cc2cc1CN(CCc1ccccc1)Cc1nnnn1CC1CCCO1)OCO3 (centres undefined) | 7.0% |
| CCc1ccc2[nH]c(=O)c(CN(CCN3CCOCC3)C(=O)Nc3ccccc3F)cc2c1 | 20.0% |

Screens from PubChem BioAssay.
